AmpC inh no det: Promiscuous and Specific Inhibitors of AmpC Beta-Lactamase (assay without detergent); P00811; AmpC nitrocefin hydrolysis, absorbance 480 nm, no detergent; potencies from a single point are estimates; Potency, µM (doses to about 28.7 µM), for inactives: at the top dose activity change, negative = inhibition; 71,000 compounds, 1.8% hits; AID 585, 2007; active = falling curve, for most hits resting on a single point; inconclusive = weak or doubtful change; inactive = flat or rising curve; also: % of control where 0% means no effect; about half of the hits show no inhibition at the top dose; a quarter of the inactives give rising signals
Target sequence (P00811 whole entry, looked up): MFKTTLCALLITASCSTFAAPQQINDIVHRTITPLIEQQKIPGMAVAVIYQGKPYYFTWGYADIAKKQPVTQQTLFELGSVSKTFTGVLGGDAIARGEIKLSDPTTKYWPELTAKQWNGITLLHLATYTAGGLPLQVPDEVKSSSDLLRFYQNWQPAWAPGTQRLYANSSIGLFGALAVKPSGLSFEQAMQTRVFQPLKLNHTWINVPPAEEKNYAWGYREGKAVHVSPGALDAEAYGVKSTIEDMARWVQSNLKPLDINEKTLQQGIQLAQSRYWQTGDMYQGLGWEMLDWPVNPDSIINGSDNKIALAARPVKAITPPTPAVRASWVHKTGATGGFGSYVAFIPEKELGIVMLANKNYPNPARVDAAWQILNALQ
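AmpC in 20 mM phosphate buffer pH 7.0 was preincubated 15 min at room temperature with compounds. Nitrocefin (800 uM stock) was then added and hydrolysis followed at 480 nm every 20 s for 4 min.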
Active calls of the source: *; ? = inconclusive; & = joins results of further samples; [ ] = dose if it differs, or a comment. Potency is read from the fitted curve at half-maximal effect. This is a subset; the hit share may differ from the screen's.

smiles	AmpC inh no det
O=C(CSc1nnc(-c2ccco2)n1CC1CCCO1)c1ccc(F)cc1 (stereo unspecified)	23.3%
COC1=CC(=O)OC12CCCCC2	-2.7%
COc1ccc(NC(=O)CSc2nnc(-c3cccnc3)n2Cc2ccco2)c(OC)c1	47.4%
Cc1cc(C)c(NC(=O)NC(=O)c2cccc(F)c2)c(C)n1	9.5%
CCOC(=O)N1CCC(Nc2ccc3nnc(-c4ccccc4)n3n2)CC1	128.6%
COC(=O)[C@@]1(Cc2ccc(OC)cc2)[C@H]2c3cc(C(=O)N(C)C)n(Cc4cc(F)c(F)c(F)c4)c3C[C@H]2CN1C(=O)c1ccccc1	106.6%
CCOC(=O)c1cn(-c2ccccc2)nc1-c1ccncc1	28.9%
O=C(Cn1cccc1C(=O)c1ccccc1)NCCCN1CCOCC1	-3.4%
Cc1ccccc1C(=O)c1cccn1CC(=O)N1CCCCCC1	23.2%
CN1CCC(=C2c3ccccc3C=Cc3ccccc32)CC1	71.3%
NCOC(=O)Cc1ccc(Br)cc1	7.4%[5.75 µM]
COc1cccc(NC(=O)N2CCCC2C(=O)NC2CC2)c1 (stereo unspecified)	0.8%
CC(C)CN1CC[C@@]2(CCCN(C(=O)c3cnccn3)C2)C1	24.5%
COc1ccc(C(=O)NCC(=O)O)cc1	1.0%
O=C(c1cccc2cccc(O)c12)N1CCCCC1	-3.9%
COc1ccc(C2N=C(c3ccccc3)C(C)(C)N2O)cc1OC (stereo unspecified)	38.4%
CCc1ccccc1NC(=O)CSc1ncn[nH]1	-2.7%
CCC1Oc2ccc(C)cc2N(CC(=O)N(Cc2cccnc2)Cc2ccc(C)o2)C1=O (stereo unspecified)	111.5%
N#Cc1c(NC(=O)CSc2ncn[nH]2)sc2c1CCCCC2	14.9%
O=C(O)C1CC=CCC1C(=O)Nc1cccc(Cl)c1 (stereo unspecified)	8.4%
COc1ccc(-n2c(NC(=O)c3ccco3)c(C#N)c3nc4ccccc4nc32)cc1	-9.1%
CCCNC(=O)N1CCN(c2nc(C(C)C)c3c(c2C#N)CC(C)(C)OC3)CC1	17.4%
CCCCC(CC)C(=O)O (stereo unspecified)	-0.4%
COc1cccc(-c2nc(CS(=O)CC(=O)O)c(C)o2)c1 (stereo unspecified)	-0.3%
CCOC(=O)c1nnc2ccnn2c1N	-13.5%
CC[N+](CC)(CC)CC(=O)Nc1c(C)cccc1C	9.4%&-23.7%
O=C(Cc1ccccc1)NCCn1ccc2ccccc21	22.8%
COCCCNC(=O)Cn1nnc(-c2ccccc2NC(=O)c2ccc(F)cc2)n1	11.9%
O=C(NCCO)c1cc2ccccc2cc1O	-8.8%
O=C(C1CCCC1)N(c1ccccc1)C1C=CS(=O)(=O)C1 (stereo unspecified)	-9.3%
COc1ccc(CCC(=O)NCc2cn3ccsc3n2)cc1	-0.2%
[N-]=[N+]=CC(=O)CC(c1ccccc1)N1C(=O)c2ccccc2C1=O (stereo unspecified)	5.3%
COc1ccc(OC)c(C(c2nnnn2C2CCCC2)N2CCN(c3ccc(F)cc3)CC2)c1 (stereo unspecified)	35.3%
Cc1ccc(/C(O)=C2/C(=O)C(=O)N(CCN3CCOCC3)C2c2ccccn2)cc1 (stereo unspecified)	3.1%
Nn1c(CN2CCCCC2)nc2ccccc2c1=O	1.5%
CCOc1cc(-c2nc(-c3ccncc3)no2)cc(OCC)c1OCC	0.1%

By substructure, the entries above containing an aryl thioether with sulfur outside any ring
smiles	AmpC inh no det
O=C(CSc1nnc(-c2ccco2)n1CC1CCCO1)c1ccc(F)cc1 (stereo unspecified)	23.3%
COc1ccc(NC(=O)CSc2nnc(-c3cccnc3)n2Cc2ccco2)c(OC)c1	47.4%
CCc1ccccc1NC(=O)CSc1ncn[nH]1	-2.7%
N#Cc1c(NC(=O)CSc2ncn[nH]2)sc2c1CCCCC2	14.9%

(further entries)
smiles	AmpC inh no det
N#Cc1cccc(NC(=O)N2CC3(CCN(C(=O)c4cc(C(F)(F)F)cc(C(F)(F)F)c4)CC3)C2)c1	100.4%
CC(=O)N1CCC2(CC1)CN(Cc1ccc(C#N)cc1)C2	-12.3%
COc1ccc(C(=O)n2nnc3ccccc32)cc1Br	-10.7%
O=c1n(Cc2ccccc2Cl)c2sc3c(c2c2ncnn12)CCCC3	35.2%
CCOc1ccc(N(CC(=O)O)S(=O)(=O)c2ccc(OC)c(OC)c2)cc1	1.0%
O=C(O)c1ccccc1N[C@H](c1ccccc1)c1ccc2cccnc2c1O	-16.1%[5.75 µM]
C=CCn1c(Cc2ccc(OC(C)C)c(Cl)c2)nnc1SCC(N)=O	60.0%
O=C(CCN1C(=O)C2C3C=CC(C3)C2C1=O)NCCc1ccccc1Cl (stereo unspecified)	14.4%
COc1ccc(OC)c(C2=NOC(C(=O)NCCN3CCOCC3)C2)c1 (stereo unspecified)	-4.9%
CCCCN(CCCC)CCC(O)c1cc2c(Cl)cc(Cl)cc2c2cc(C(F)(F)F)ccc12 (stereo unspecified)	0.9%[12.8 µM]
CN(c1ccccc1C(=O)N1CCc2ccccc2C1)S(C)(=O)=O	20.0%
c1ccc(N2CCN(C3CCSC3)CC2)cc1 (stereo unspecified)	-1.5%
Nc1nc(SCC(=O)NCC2CCCO2)n[nH]1 (stereo unspecified)	-7.1%
CNC[C@H](O)c1ccc(O)c(OC)c1	0.2%[12.8 µM]
O=S(=O)(Cc1ccccc1)N1CCN(C/C=C/c2ccccc2)CC1	-4.0%
CC(=O)c1ccc(OCC(O)CN2CCOCC2)cc1 (stereo unspecified)	3.98µM*[single pt active]
CC(=O)c1cn(CC(=O)NCc2cccnc2)c2ccccc12	3.4%
Cc1ccc2c(CC(=O)NC3=NCCS3)coc2c1	-5.6%
CN1C[C@H](C(=O)N[C@]2(C)O[C@@]3(O)[C@H]4CCCN4C(=O)[C@@H](Cc4ccccc4)N3C2=O)C[C@H]2c3cccc4[nH]cc(c34)C[C@@H]21	124.1%
CCc1c(C)nc2ncnn2c1N1CCC(C(=O)N2CCN(c3ccccc3)CC2)CC1	52.0%
COc1ncc2nc(-c3cn(C)c4ccccc34)c(=O)n(C)c2n1	22.8%
Cn1cccc1C(=O)N1CCC2(CCN(C(=O)Nc3ccccc3)CC2)CC1	49.1%
O=C(NCc1cccs1)C(Cc1ccccc1)NS(=O)(=O)c1cccs1 (stereo unspecified)	?
CCS(=O)(=O)N1CCCC(C(=O)NC2CCCC2)C1 (stereo unspecified)	-7.0%
Nc1cc(C(=O)OCC(=O)N2CCCC2)ccc1Cl	-2.7%
CCC(C)(C)n1nnnc1C(c1cc2cccc(C)c2[nH]c1=O)N1CCCC1 (stereo unspecified)	75.4%
CCCCCSc1nc2c(c(=O)[nH]c(=O)n2C)n1CCc1ccccc1	5.2%
COC(=O)COc1nc(C)c2c(c1C#N)CC(C)(C)OC2	3.7%
C=CCn1c(SCC(=O)Nc2ccccc2OC)nc(O)c(CC)c1=O	-10.5%
COc1ccccc1C(=O)Nc1ccc(S(=O)(=O)Nc2cc(C)on2)cc1	-13.8%
COc1cc(NC(=O)c2cccs2)c(OC)cc1NC(=O)CCn1nnc2ccccc21	80.1%
COc1cc(-c2nc(-c3ccccn3)no2)cc(OC)c1OC	19.8%
CCCCn1c(NC(=O)CC)c(C#N)c2nc3ccccc3nc21	23.4%
CC(C)[C@@H](CC(=O)N[C@@H]1CCNC[C@H]1C(=O)N[C@H](CC(=O)N[C@@H](CCC(=O)O)CC(=O)O)Cc1c[nH]c2ccccc12)NC(=O)C[C@H](Cc1ccccc1)NC(=O)[C@@H]1CNCC[C@H]1N	109.4%
COCC(=O)N(Cc1cc2cc(OC)ccc2[nH]c1=O)c1ccccc1	-2.9%
COc1cccc(N2CCN(C3CCCC(C)C3)CC2)c1 (stereo unspecified)	0.7%
O=C(NCCC1=CCCCC1)C1CCN(C(=O)Nc2ccccc2)CC1	-4.7%
COc1ccc(C(C)NC(=O)C2CCCO2)cc1OC (stereo unspecified)	-4.4%
Cc1ccc(Cl)cc1N1CCN(C(=O)c2ccc(CN3CCOCC3)cc2)CC1	130.6%
COc1ccccc1NC(=O)N1CCCC1C(=O)NCc1ccccc1 (stereo unspecified)	-1.0%
COC(=O)c1ccc(N2CCN(C)CC2)c(NC(=O)c2cc3ccccc3o2)c1	59.6%
COC(=O)c1c(NC(=O)CSc2nc3c(c(=O)n(C)c(=O)n3C)n2C(C)C)sc(C)c1C	27.8%
CCOc1ccc(OCC)c(NC(=O)CC2Oc3ccccc3NC2=O)c1 (stereo unspecified)	11.1%
O=C(NCc1ccccc1)C1CCCN(C(=O)Nc2ccccc2)C1 (stereo unspecified)	7.2%
OC(COc1c(Br)cc(Br)cc1Br)CN1CCOCC1 (stereo unspecified)	20.1%
CCOC(=O)c1c(C)n(C)c2cc(OCCN(CC)CC)ccc12	17.7%
C=CCn1c(SCC(=O)c2ccc(OC)cc2)nnc1-c1cc2cccc(OC)c2o1	45.6%
C[N+](C)(C)c1nc(N)nc2c1ncn2[C@H]1O[C@@H](CO)[C@@H](O)[C@H]1O	-2.4%[5.75 µM]
CCCc1cc(=O)[nH]c(SCC(N)=O)n1	0.3%
CN(C)S(=O)(=O)N(CC(=O)N1CCOCC1)c1ccccc1	7.2%
Cc1cccc2cc(C#N)c(NCCNC(=O)NC3CCCCC3)nc12	-2.9%
CCN(CC)S(=O)(=O)c1cccc(C(=O)OCC(=O)N2CC(=O)Nc3ccccc32)c1	24.6%
COc1cccc(C2=CC(c3ccc(OC)c(OC)c3OC)n3nnnc3N2)c1 (stereo unspecified)	59.4%
COc1cccc(NC(=O)CSCc2n[nH]c(=O)[nH]2)c1	-4.4%
COCCCNc1nc2c(c(=O)[nH]c(=O)n2C)n1CCCc1ccccc1	5.1%
CCC(C)NC(=O)CS(=O)Cc1nc(-c2ccccc2C)oc1C (stereo unspecified)	3.98µM*[single pt active]
CC(C)[C@H](NC(=O)NCc1cccs1)C(=O)O	1.0%
O=C(COc1ccccc1O)c1cccs1	-7.8%
CCCCN(C)C(=O)CCC(=O)Nc1ccc2nc(N3CCOCC3)cc(C)c2c1	73.5%
O=C(NC1CCCCCCC1)C1=COCCO1	3.4%

(listing goes on)
smiles	AmpC inh no det
Cc1ccc2c(c1)N(CCC(=O)NCCN1CCOCC1)C(=O)CO2	-7.8%
CNc1nc(-c2ccccc2OC)nc2ccccc12	-1.7%
Cc1ccsc1CNn1cnnc1SCc1ccccc1F	16.9%
Cn1c2ccccc2c2nnc(SC3CCOC3=O)nc21 (stereo unspecified)	-1.8%
O=c1cc(NCC2CCCO2)[nH]c(=O)n1-c1ccc(Cl)cc1 (stereo unspecified)	7.2%
CCCS(=O)(=O)N1CCC(C(=O)N2CCOCC2)CC1	-5.4%
Cc1ccccc1Cn1cc(NC(=O)c2cc3nc(-c4ccco4)cc(C(F)(F)F)n3n2)cn1	86.2%
O=C(CSc1nnc(-c2cccs2)o1)NCC1CN(Cc2ccccc2)CCO1 (stereo unspecified)	37.0%
CCS(=O)(=O)N1CCN(Cc2ccncc2)CC1	-5.1%
CCCN1CCN(C(=O)C2CCN(S(=O)(=O)c3ccc4c(c3)oc(=O)n4C)CC2)CC1	3.98µM*[single pt active]
COc1cccc(OC)c1OCCCSc1nc(C)cc(=O)[nH]1	5.1%
COC(=O)CSc1nnc2c3c4c(sc3nc(-n3nc(C)cc3C)n12)COC(C)(C)C4	105.6%
COc1cccc(NS(=O)(=O)c2c(C)cc(C)cc2C)c1	-18.8%
Cc1c(NC(=O)CN2CC(C)OC(C)C2)c(=O)n(-c2ccccc2)n1C (stereo unspecified)	-4.8%
CN(C(=O)CSc1nnnn1-c1ccccc1)C1CCCCC1	15.7%
CCOCCCNC(=O)C(c1ccc(Cl)cc1)N1CCN(C(=O)c2ccco2)CC1 (stereo unspecified)	96.2%
CN(C)S(=O)(=O)c1ccc(NC(=O)c2cc3ccccc3o2)cc1	-11.0%
CCOC(=O)CC1C(=O)NCCN1C(=O)Nc1ccccc1 (stereo unspecified)	-8.7%
COc1c(Cl)cc(-c2noc(C)c2C(=O)NC(C)C)cc1Cl	20.5%
[O]=[Cr](=[O])([OH])[O][Cr](=[O])(=[O])[OH]	-12.2%&-8.1%&-2.7%
N#Cc1c(N)nc2c(c1-c1ccncc1)CCCC2	-4.1%
NCCOB(c1ccccc1)c1ccccc1	?
COCCn1c(-c2ccc(OC)cc2)cnc1N	57.8%
COc1cc(/C=N/n2cnnc2)ccc1OC(=O)c1cccnc1	5.7%
CCOC(=O)CNC(=O)CSc1nc2nc(C)c(Br)cc2[nH]1	-11.6%
O=c1[nH]c2ccccc2c2nc3ccccn3c12	-11.2%
C[n+]1cnn2c1SCC1(COC1)C2	-0.7%
O=C1CN(C(=O)CN2CCCC2)C(c2ccccc2)c2cc(Br)ccc2N1 (stereo unspecified)	14.9%
CCc1cc2c(=O)c(-n3cnc4ccccc43)coc2cc1O	-10.8%
CCCCCCN1Cc2ccccc2C1	-13.1%
CC(=O)c1c(C)[nH]c(C(=O)NCc2ccccn2)c1C	5.4%
Cc1ccc(CNC(=O)c2coc(=O)c3ccccc23)o1	-9.6%
